Mtb bLac sens – beta-lactam sensitization of Mtb H37Rv; M. tuberculosis H37Rv growth with meropenem, percent inhibition; hits of this screen are not shown here; inhibition, % at 25 µM; hit rate 0.27% among 330,000;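 active = about 74% or more and at least 40 points above the plate without the antibiotic, then above 30% in a dose series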;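 also: growth measured after seven days incubation then overnight dye step; 0% = bacteria only wells and 100% = bacteria with antibiotic; twin plates without the antibiotic show which effects depend on it; some results filed as inactive read as strong as hits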
RecA intein inh – blocks M. tuberculosis RecA intein splicing; P9WHJ3; hit rate 0.75% among 290,000; inhibition, %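 (about 9 µM by stock and volumes)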; AID 2221; cell-free RecA intein splicing, fluorescence; in the data active = inhibition above about 30%;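 also: 0% = vehicle wells and 100% = reference inhibitor control wells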
Target sequence (P9WHJ3 whole entry, looked up): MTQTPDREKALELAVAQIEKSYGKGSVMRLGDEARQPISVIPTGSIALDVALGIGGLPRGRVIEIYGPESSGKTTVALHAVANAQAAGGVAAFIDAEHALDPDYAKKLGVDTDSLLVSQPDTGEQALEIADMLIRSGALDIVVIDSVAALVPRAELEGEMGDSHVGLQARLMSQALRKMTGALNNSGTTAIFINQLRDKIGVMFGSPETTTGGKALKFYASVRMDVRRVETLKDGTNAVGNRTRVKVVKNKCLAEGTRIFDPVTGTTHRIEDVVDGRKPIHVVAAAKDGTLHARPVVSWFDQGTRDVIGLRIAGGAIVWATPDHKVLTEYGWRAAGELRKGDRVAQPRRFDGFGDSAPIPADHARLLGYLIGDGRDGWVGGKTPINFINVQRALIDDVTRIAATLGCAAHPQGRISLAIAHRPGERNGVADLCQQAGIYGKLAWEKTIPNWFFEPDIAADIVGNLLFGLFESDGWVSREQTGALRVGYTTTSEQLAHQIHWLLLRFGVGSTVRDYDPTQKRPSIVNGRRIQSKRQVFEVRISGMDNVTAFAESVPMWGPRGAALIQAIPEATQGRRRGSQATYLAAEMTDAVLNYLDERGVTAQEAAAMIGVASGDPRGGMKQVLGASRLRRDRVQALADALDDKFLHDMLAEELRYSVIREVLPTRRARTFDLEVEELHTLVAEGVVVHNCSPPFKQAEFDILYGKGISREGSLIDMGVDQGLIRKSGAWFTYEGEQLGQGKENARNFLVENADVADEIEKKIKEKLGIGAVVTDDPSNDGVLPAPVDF
YopH PTP inh – inhibitors of Yersinia enterocolitica YopH tyrosine phosphatase; fluorescence Ex485/Em525; inhibition, %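 (about 10 µM by stock and volumes)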; hit rate 0.16% among 140,000; AID 898;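 active = inhibition of 50% or more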;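 also: controls were vehicle for no effect and minimum signal wells for full effect; inactives centre near -20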
Arbovirus inh – antivirals against arbovirus infection; arbovirus infection cell-based antiviral screen; inhibition, % at 10 µM; hit rate 0.37% among 200,000; AID 1251;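 active = inhibition from about 30%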;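 also: bluetongue infection of BSR cells; cell survival read as ATP light after 72 h; 0% = infected wells without compound and 100% = uninfected wells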
Mtb H37Rv – M. tuberculosis H37Rv growth inhibitors, H37Rv strain (AID 1626) | M. tuberculosis H37Rv growth inhibition; higher % means a stronger effect | inhibition, % at 10 µM, or IC50 in µM where a hit was titrated | hit rate 0.95% among 220,000;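 active = confirmed in a dose series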;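 also: bacteria incubated seven days before Alamar blue readout; 0% = bacteria only wells and 100% = bacteria with antibiotic wells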
Arbovirus inh repeat – second read-out of Arbovirus inh, no call of its own (marks repeat the call); inhibition, %; measured here: 10K subset replicate screen; many hits read low in the repeat;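 first of two repeat runs on a subset; 0% = infected and 100% = uninfected wells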
Numbers without * were called inactive; · = not tested or not shown.

SMILES	Mtb bLac sens	RecA intein inh	YopH PTP inh	Arbovirus inh	Mtb H37Rv	others
Nc1nc(SCC(=O)Nc2ccccc2)[nH]c(=O)c1NC(=O)c1cccs1	-10	-2.2	-35	-1	-6%
Cc1csc(NC(=O)CS(=O)(=O)Cc2ccccc2)n1	-10	0.7	·	-3	5%
c1ccc(CSc2nccc(-c3ccco3)n2)cc1	9	12	·	·	·
Cc1cc(-c2csc3ncnc(N4CCN(C)CC4)c23)cc(C)c1C	0	1.8	·	·	·
COC(=O)Nc1sc2c(c1C(=O)N1CCOCC1)CCC(C)C2 (centres undefined)	2	1.9	-4	0	1%
COc1cccc(-n2c(Cc3cc(=O)[nH]c(=O)[nH]3)nnc2SCC(=O)NC2CCCC2)c1	2	·	-27	5	-5%	Arbovirus inh repeat=0
Cc1cccc(-n2cnc(C(=O)Nc3cccnc3)c2)n1	3	-5.2	-7	-7	-3%
Cn1cc(S(=O)(=O)CC(=O)N2CCc3ccccc32)c2ccccc21	2	1.6	-31	0	17%
O=C(Nc1ncn[nH]1)c1cc(S(=O)(=O)Nc2cccc(C(F)(F)F)c2)ccc1Cl	-10	-0.8	·	8	5%
C/C(=N/NS(=O)(=O)c1cc(C)ccc1C)c1ccc2c(c1)OCO2	3	-0.2	·	·	·
CC1(C)CC(=O)N(c2cc(Cl)ccc2Cl)C(=O)C1	-7	4.7	·	·	·
COc1cc(C2NC(=O)NC(C)=C2C(=O)OC(C)C)ccc1OC(=O)c1ccco1 (centres undefined)	-7	13	-12	5	-9%
CCOc1ccc(CCNC(=O)Cn2ccc3ccccc3c2=O)cc1OCC	3	0.1	·	2	0%
Cc1ccc(C(C(=O)NCc2ccc(F)cc2)N(Cc2ccco2)C(=O)c2snc(C(N)=O)c2N)o1 (centres undefined)	7	6.7	·	·	·
COC(=O)c1ccc(Cn2cnc3cnccc32)cc1	9	-5.8	·	·	·
O=C(O)CN1C(=O)/C(=C/c2ccsc2)SC1=S	-4	1.1	·	-6	-13%
COc1ccc2nc(-c3ccccc3)nc(C3CCCCC3)c2c1	5	1.9	·	·	·
OCCC1CN(CC#Cc2ccccc2)CCN1Cc1ccccc1F (centres undefined)	-6	1.3	·	·	·
Cc1ccc(/C=C2/SC(=S)N(c3ccc(S(=O)(=O)Nc4nccs4)cc3)C2=O)cc1	11	3.5	·	·	-3%
O=CC(Cl)P(=O)(N1CCCCC1)N1CCCCC1 (centres undefined)	-10	-1.6	20	3	-4%
CC(C)N(Cc1ccccc1)S(=O)(=O)c1ccc2c(c1)NC(=O)CO2	-7	-0.9	·	·	·
CCc1ccc2[nH]c(=O)c(CN(Cc3ccccc3OC)C(=O)Nc3ccccc3OC)cc2c1	-11	0.5	-10	-11	8%
CC(C)Sc1nnc(NC(=O)c2ccc3c(c2)OCO3)s1	-3	0.2	·	·	·
Cc1ccc(C)n1-n1cnc2sc(-c3ccccc3)cc2c1=O	15	-4.0	-29	1	-1%

Quoted from the entries so far for reference:
SMILES	Mtb bLac sens	RecA intein inh	YopH PTP inh	Arbovirus inh	Mtb H37Rv	others
Nc1nc(SCC(=O)Nc2ccccc2)[nH]c(=O)c1NC(=O)c1cccs1	-10	-2.2	-35	-1	-6%
Cc1csc(NC(=O)CS(=O)(=O)Cc2ccccc2)n1	-10	0.7	·	-3	5%
c1ccc(CSc2nccc(-c3ccco3)n2)cc1	9	12	·	·	·
Cc1cc(-c2csc3ncnc(N4CCN(C)CC4)c23)cc(C)c1C	0	1.8	·	·	·
COC(=O)Nc1sc2c(c1C(=O)N1CCOCC1)CCC(C)C2 (centres undefined)	2	1.9	-4	0	1%
COc1cccc(-n2c(Cc3cc(=O)[nH]c(=O)[nH]3)nnc2SCC(=O)NC2CCCC2)c1	2	·	-27	5	-5%	Arbovirus inh repeat=0
Cc1cccc(-n2cnc(C(=O)Nc3cccnc3)c2)n1	3	-5.2	-7	-7	-3%
Cn1cc(S(=O)(=O)CC(=O)N2CCc3ccccc32)c2ccccc21	2	1.6	-31	0	17%
O=C(Nc1ncn[nH]1)c1cc(S(=O)(=O)Nc2cccc(C(F)(F)F)c2)ccc1Cl	-10	-0.8	·	8	5%
C/C(=N/NS(=O)(=O)c1cc(C)ccc1C)c1ccc2c(c1)OCO2	3	-0.2	·	·	·
CC1(C)CC(=O)N(c2cc(Cl)ccc2Cl)C(=O)C1	-7	4.7	·	·	·
COc1cc(C2NC(=O)NC(C)=C2C(=O)OC(C)C)ccc1OC(=O)c1ccco1 (centres undefined)	-7	13	-12	5	-9%
CCOc1ccc(CCNC(=O)Cn2ccc3ccccc3c2=O)cc1OCC	3	0.1	·	2	0%
Cc1ccc(C(C(=O)NCc2ccc(F)cc2)N(Cc2ccco2)C(=O)c2snc(C(N)=O)c2N)o1 (centres undefined)	7	6.7	·	·	·
COC(=O)c1ccc(Cn2cnc3cnccc32)cc1	9	-5.8	·	·	·
O=C(O)CN1C(=O)/C(=C/c2ccsc2)SC1=S	-4	1.1	·	-6	-13%
COc1ccc2nc(-c3ccccc3)nc(C3CCCCC3)c2c1	5	1.9	·	·	·
OCCC1CN(CC#Cc2ccccc2)CCN1Cc1ccccc1F (centres undefined)	-6	1.3	·	·	·
Cc1ccc(/C=C2/SC(=S)N(c3ccc(S(=O)(=O)Nc4nccs4)cc3)C2=O)cc1	11	3.5	·	·	-3%

(continued)
SMILES	Mtb bLac sens	RecA intein inh	YopH PTP inh	Arbovirus inh	Mtb H37Rv	others
CC(=O)Cc1cc(O)c2ccccc2c1OC(=O)c1ccc(Br)cc1	1	·	·	·	-14%
O=C(NNS(=O)(=O)c1ccccc1)c1cc2cc3ccccc3nc2s1	5	-2.7	-3	-3	-10%
Cc1ccc(S(=O)(=O)Nc2ccc(C(=O)N3CCN(c4ccccc4O)CC3)cc2)cc1[N+](=O)[O-]	1	-8.1	·	·	·
CC1(c2nnc(Cc3ccccc3)o2)CC(c2ccc(Br)cc2)=NO1 (centres undefined)	-6	2.6	·	·	-7%
O=[N+]([O-])c1cc(S(=O)(=O)/N=C(/c2ccccc2)N2CCOCC2)ccc1Cl	-3	-4.7	·	1	1%
CCOCCCNC(=O)CN1C2CCC1CC(O)(c1ccc(OC)cc1)C2 (centres undefined)	-2	-0.3	-47	6	-1%
COc1ccccc1N1CCN(C(=O)C2CC(=O)N(c3ccccc3)C2)CC1 (centres undefined)	0	-1.9	·	·	·
CC(C)CN(C(=O)COC(=O)Cc1c[nH]c2ccccc12)C1CCS(=O)(=O)C1 (centres undefined)	-3	-2.7	-40	3	-14%
O=C(CCc1c[nH]c2ccccc12)N[C@@H](Cc1c[nH]c2ccc(O)cc12)C(=O)O	0	-3.1	·	·	·
COc1cc(NC(=O)COC(=O)CSc2cc(C)ccc2C)c(C)cc1[N+](=O)[O-]	1	-0.8	16	9	8%
CCCNc1nc(Nc2ccc(C)cc2)nc(N2CCCC2)n1	99	2.5	-2	-22	6%
Cc1cc(C)c2c(n1)SCC(=O)N2CC(=O)Nc1ccc(F)cc1	-3	0.4	·	·	·
CC1CC(C)CN(CCCOc2ccccc2[N+](=O)[O-])C1 (centres undefined)	1	-1.2	-6	-1	1%
CN(CCNC(=O)C1CCN(S(=O)(=O)N2CCOCC2)CC1)CCc1ccccc1	-4	-1.5	-43	8	-3%
COc1ccc2c(c1)C(=O)N(c1ccc(C)cc1C)C(=O)C2	2	-1.1	-13	3	4%
O=C(CCCOc1ccc(Cl)cc1)NCC1CCCO1 (centres undefined)	2	0.0	-30	3	-7%
COC(=O)c1c(NC(=O)C2COc3ccccc3O2)sc2c1CCN(Cc1ccccc1)C2 (centres undefined)	66	-0.5	-14	-7	·
Cc1cc(-n2c(C)cc(C(=O)COC(=O)CN=C3NS(=O)(=O)c4ccccc43)c2C)no1	-7	0.2	-2	7	3%
C=Cn1c(C(=O)O)ccc1-c1ccc(CC)cc1	-3	1.8	·	·	-6%
Cc1ccc([N+](=O)[O-])c(OCc2ncc(Cl)n2C)c1	-5	0.0	·	·	·
Cc1c(NC(=O)C(C)OC(=O)/C=C/c2ccco2)c(=O)n(-c2ccccc2)n1C (centres undefined)	-2	0.6	·	3	6%
CS(=O)(=O)N(CC(=O)N1CCN(c2ccccc2)CC1)c1cccc(Br)c1	-1	0.2	-39	-2	-4%
CCC(C)C(=O)NCCc1ccc(S(N)(=O)=O)cc1 (centres undefined)	2	-0.5	-25	-3	-8%
CCOC(=O)c1ccc(NC(=O)C(=O)NCc2ccc(/C=C(/C#N)C(=O)NCCOC)o2)cc1	49	-3.4	·	10	7%
CCCc1nnc(SCC(=O)NC2CC2)n1CC	6	-0.8	·	·	·
COC(=O)c1ccc(NC(=O)c2ccc(NS(=O)(=O)c3cccc4cccnc34)cc2)cc1	-11	-0.5	·	·	·
Fc1cccc(F)c1CN1CCN(c2ncccn2)CC1	-8	0.6	17	-4	-5%
CC(O)c1nc2cc([N+](=O)[O-])ccc2n1Cc1ccccc1 (centres undefined)	-31	1.0	·	·	·
COc1ccc(Cl)cc1NC(=O)CN1CCC(n2nnc3cc(F)ccc32)CC1	3	·	-23	-3	-13%
O=S(=O)(c1ccccc1Cl)N1CCCC(c2nc(-c3cccnc3)no2)C1 (centres undefined)	-7	0.1	-5	11	0%
COc1ccccc1-n1c(-c2ccoc2)nc2ccccc2c1=O	6	4.4	-53	4	3%
Cc1ccc(N2C(=O)C3C(C2=O)C2C=CC3C23CC3)c([N+](=O)[O-])c1 (centres undefined)	-14	-1.2	·	3	-2%
Cc1cccc(OCc2nnc(SC(C)C(=O)O)n2-c2ccccc2)c1 (centres undefined)	-9	-1.0	·	·	·
COc1ccc(C(=O)NC2CCN(C(=S)Nc3ccc(C)cc3)CC2)cc1	-3	0.6	·	7	-5%
Cc1ccc(/C=C\c2nccc3c2[nH]c2ccccc23)cc1	96	-10	·	10	42%
COc1cccc(C(=O)NN2CC(O)=C(c3nc4ccccc4s3)C2=N)c1	2	1.9	·	0	1%
O=C(O)c1ccccc1C(=O)N1N=C2/C(=C/c3cccc([N+](=O)[O-])c3)CCCC2C1c1cccc([N+](=O)[O-])c1 (centres undefined)	8	3.5	·	17	3%
COc1cccc(CN(CC2CCCO2)C(=O)c2cc3ccccc3oc2=O)c1 (centres undefined)	2	0.5	·	-3	5%
CSCCC1(C(=O)O)NC(c2ccccc2O)C2C(=O)N(C(C)C)C(=O)C21 (centres undefined)	-3	-1.0	-35	4	-7%	Arbovirus inh repeat=3
COc1ccccc1C(=O)Nc1ccc2c(c1)CN(Cc1cnc(C)s1)CC2	35	1.1	·	·	·
O=C(c1sc2ccccc2c1Cl)N1CCN(CCc2ccccn2)CC1	-2	2.6	·	·	·
CC(NC(=O)C(CC(=O)OC(C)(C)C)NC(=O)OC(C)(C)C)C(N)=O (centres undefined)	0	1.7	-10	2	-1%
CCOC(=O)c1cc2nc(-c3ccco3)cc(C(F)(F)F)n2n1	17	-18	-18	2	6%
COC(=O)C1CCN(C(=O)CSc2nc3ccc(OC)cc3[nH]2)CC1	2	-1.5	·	3	-1%
CCCCCCc1cc2cc(C(=O)Nc3ccc(OC)cc3)c(=O)oc2cc1O	-3	-7.9	-42	47*	9%
COc1ccc(C2C(C(=O)c3ccco3)=C(O)C(=O)N2CCOCCO)cc1OC (centres undefined)	74	3.8	-21	2	0%
CC1(C)CC(=O)C(C2=NC3(CCCCC3)Cc3ccccc32)=C(O)C1	-4	1.1	·	-7	0%
Cn1c(SCC(=O)Nc2ccccc2)nc2ccccc2c1=O	-5	-0.3	·	·	·
Cc1cc(NS(=O)(=O)c2ccc(NC(=O)c3oc4ccccc4c3C)cc2)no1	34	2.1	11	4	0%
O=C(NCCCN1CCOCC1)C(=O)NCC1OCCCN1S(=O)(=O)c1cc(F)ccc1F (centres undefined)	-15	2.1	·	·	·
COC(CNC(=O)C1CC(=O)N(CCc2ccc(C)cc2)C1)OC (centres undefined)	-6	-1.8	·	·	·
CC(C)Oc1ccc2c(c1)OC(c1ccccc1)(C(F)(F)F)NC2=O (centres undefined)	3	-1.5	-28	-6	5%
COc1ccc(S(=O)(=O)n2nc(OC(=O)c3ccccc3)cc2N)cc1	-6	8.5	0	-2	2%
CN1CCC/C1=C/C=C1\SC(=S)NC1=O	-7	·	21	-17	5%
CCOC(=O)c1c(NC(=O)c2ccn(CC)n2)sc2c1CCCC2	30	3.8	18	4	7%
Cc1ccc(CNC(=O)C2CCN(S(=O)(=O)N3CCCC3)CC2)cc1	0	-0.7	·	·	·
CCn1cc(CCC(=O)NC2CCCC2)c2ccccc21	-3	-0.9	·	·	·
O=C(Nc1nc(-c2ccccc2)cs1)c1cccs1	8	4.0	-20	74*	8%	Arbovirus inh repeat=64*

Assay outcomes from PubChem.

An excerpt. The share of hits here may be higher or lower than overall.
